# Compound activity: PubChem, National Center for Advancing Translational Sciences (NCATS)
# hNpr1 antagonist – Natriuretic polypeptide receptor (hNpr1) antagonism - Primary qHTS | HEK293 hNpr1 GloSensor cGMP, ANP-stimulated luminescence | Atrial natriuretic peptide receptor 1 (Homo sapiens), P16066 | 76,000 compounds, 1.6% hits | Potency, µM (doses to about 46.3 µM), inactives show at the highest dose activity change, negative = inhibition, hits mostly inhibitors; active = well fitted inhibition curve with a large enough effect; inconclusive = small, poorly fitted or top-dose-only effect; inactive = no such curve, though single readings can be large or run the other way;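 further: nearly all actives have a fitted effect of over 60% in size; nearly all hits also lower the signal before the agonist is added; a reference antagonist and vehicle were the controls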
# Target sequence (P16066 whole entry, looked up): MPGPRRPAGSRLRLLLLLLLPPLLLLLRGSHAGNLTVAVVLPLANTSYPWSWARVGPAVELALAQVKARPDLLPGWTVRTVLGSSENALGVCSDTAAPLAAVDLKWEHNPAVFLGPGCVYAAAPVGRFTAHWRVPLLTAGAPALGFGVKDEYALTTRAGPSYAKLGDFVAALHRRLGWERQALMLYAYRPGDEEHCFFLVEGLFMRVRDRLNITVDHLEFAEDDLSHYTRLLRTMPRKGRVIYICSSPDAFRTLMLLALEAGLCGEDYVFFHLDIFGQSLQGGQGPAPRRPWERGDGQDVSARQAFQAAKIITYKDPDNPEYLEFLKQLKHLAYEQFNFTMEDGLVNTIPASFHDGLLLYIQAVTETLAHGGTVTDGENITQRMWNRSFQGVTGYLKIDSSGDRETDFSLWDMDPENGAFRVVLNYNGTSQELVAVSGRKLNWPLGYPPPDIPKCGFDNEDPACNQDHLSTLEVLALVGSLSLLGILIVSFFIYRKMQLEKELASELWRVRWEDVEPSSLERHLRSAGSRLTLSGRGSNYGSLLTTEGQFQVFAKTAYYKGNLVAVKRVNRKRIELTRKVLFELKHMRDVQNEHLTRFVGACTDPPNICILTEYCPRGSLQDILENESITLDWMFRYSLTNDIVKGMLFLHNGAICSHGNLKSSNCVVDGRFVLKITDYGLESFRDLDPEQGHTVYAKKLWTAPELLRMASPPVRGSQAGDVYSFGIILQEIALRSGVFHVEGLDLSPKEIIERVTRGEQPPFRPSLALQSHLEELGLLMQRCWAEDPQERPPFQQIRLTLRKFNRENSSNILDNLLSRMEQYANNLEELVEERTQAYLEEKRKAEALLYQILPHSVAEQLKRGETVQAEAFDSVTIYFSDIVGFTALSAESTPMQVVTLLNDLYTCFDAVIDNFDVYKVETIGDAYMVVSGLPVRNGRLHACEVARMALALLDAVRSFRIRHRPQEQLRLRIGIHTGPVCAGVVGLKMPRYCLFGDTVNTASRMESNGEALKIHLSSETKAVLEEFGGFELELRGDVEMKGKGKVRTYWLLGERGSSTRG
#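 Compound pre-incubated 30 min at room temperature on GloSensor-loaded HEK293 cells stably carrying hNpr1 and the pGS-40F cGMP biosensor. Stimulation uses hNppA at 0.1 nM final; luminescence is taken at baseline and 20 min post-agonist.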
# * = called active by the depositor; ? = inconclusive; & = joins results of further samples; [ ] = remark or other dose. On the % scale 0 is the no-effect control and ±100 the full control effect; potency means the concentration at half of the fitted maximal effect.
Compound | hNpr1 antagonist
O=C(C[C@@H]1CCNC[C@@H]1Cc1cc(COc2ccccc2)on1)Nc1ccccc1 | -9.2%[70.6 µM]
CC1(c2ccccc2)CCCN(C(=O)c2ccnc(-n3cnnc3)c2)C1 (stereo unspecified) | 0.4%
CSCC(=O)N1C[C@@H](NC(=O)Nc2ccc(F)cc2F)C[C@H]1C(=O)N(C)CC(N)=O | 1.4%
Cc1nc(CCNS(=O)(=O)c2ccc(Cl)c(C)c2)no1 | -10.3%
Cn1ccnc1CN1C(=O)CO[C@H]2CN(Cc3ccc(S(C)(=O)=O)cc3)C[C@H]21 | -4.3%[70.6 µM]
FC(F)(F)c1ccccc1-c1cc(-c2cccnc2)c2cncn2c1 | -4.0%[70.6 µM]
COCCN1C(=O)CS(=O)(=O)C12CCN(C(=O)COc1ccccc1)CC2 | 2.5%
COc1cccc(C(=O)N(C)Cc2ccc(-c3ccccc3)cc2)c1 | 5.8%[70.6 µM]
COc1ccc(-c2ccnc(-c3nnc(C)n3C3CCN(C)CC3)c2)cc1OC | 7.5%[70.6 µM]
COc1ccccc1CNC(=O)[C@@H](C)C1CC[C@@]2(C)CC[C@H](NC(=O)C3CCCCC3)[C@@H](C)[C@@H]2[C@H]1O (stereo partly specified) | 2.0%
Cc1cc(NCCc2cnccn2)nc(-c2ccccc2O)n1 | 0.3%
O=[S+]([O-])(Nc1ccccc1)c1ccc2c(c1)OCCN(Cc1ccncc1F)C2 | ?
CN(C)C(=O)CC(O)c1cc2n(n1)CCN(Cc1ccc3c(c1)OCCO3)C2 (stereo unspecified) | 3.6%
Cc1cccc2c1nc1n2[C@@H](CNC2CCOCC2)COC1 | -1.3%[70.6 µM]
CCc1nc2cc(N3CCCC(C(=O)O)C3)cnc2nc1CC (stereo unspecified) | -1.6%
CC(C)(CO)CNC(=O)c1cnc2c(c1)N([S+](=O)([O-])c1cccnc1)CCC2 | -1.4%[70.6 µM]
COc1cccc(CN2CC3(C2)C(=O)N(CCCN2CCCC2=O)C(=O)[C@@H]2C[C@@H](O)CN23)c1 | -1.1%
Cc1noc(C)c1-c1nccc2c(=O)cc(N(C)c3ccccc3)oc12 | 7.5%[70.6 µM]
Cc1cn2nnc(C(=O)NCC(C)c3ccccc3)c2c(=O)[nH]1 (stereo unspecified) | -2.5%
Cc1nn(C(=O)CCC(=O)N2CCC(Cc3nc(C4CCOCC4)no3)CC2)c2ccccc12 | -21.5%
O=C(CC1CCN(C(=O)C2CCC2)C1)NC1CC1 (stereo unspecified) | -7.8%
CCN1c2cc(C(=O)Nc3ccc(Cl)c(C)c3)ccc2C(=O)N2CCCCCC21 (stereo unspecified) | -0.4%
Cc1noc([C@@H]2CN(Cc3cc(F)cc(F)c3)C[C@H]2CO)n1 | -3.7%
c1cc2nnc(C3CC3)n2nc1N1CCCC1 | 1.5%
N#Cc1ccc(CN2CCN(c3nccc(Cl)n3)C(=O)C2)cc1 | 19.4%[70.6 µM]
O=C(c1ccsc1)N1CCC2(CC1)CC(OCC1CC1)CCO2 (stereo unspecified) | 0.0%
Cc1noc(C)c1-c1cc2cc(CO)oc2c(NC2CCOCC2)n1 | -18.8%[70.6 µM]
O=C(c1ccc(F)cc1)N1CCCC(c2nn(-c3ccc(Cl)cc3)c(=O)[nH]2)C1 (stereo unspecified) | -4.7%
Cn1ccc2c(C(=O)NCc3cccnc3)nc(-c3cccc(F)c3)cc21 | ?
COc1ccc(-c2cc(-c3ccc(N4CCOCC4)nc3)cn3cncc23)cc1 | -3.5%[70.6 µM]
O=C(CCc1ccccc1)N1CCC(CCOc2ccccc2F)C1 (stereo unspecified) | -17.2%
O=C(c1ccc(F)cc1)N1CCCC(n2cc(-c3nc(-c4ccccc4)no3)nn2)C1 (stereo unspecified) | ?
COCCn1c(C)cnc1CC1CCCN(Cc2ccc(F)c(F)c2)C1 (stereo unspecified) | -9.3%
COCCCN1CC2(CCN(C(=O)CCn3cc(C)cn3)CC2)CC1=O | 1.0%
COc1ccc(C(=O)N2CCC(c3nn(-c4ccccc4)c(=O)[nH]3)CC2)cc1 | 5.0%
CCn1cc(NC(=O)C[C@H]2NC(=O)c3ccccc3NC2=O)c(C)n1 | -0.1%
CC(C)NC(=O)c1cc(-c2ccccc2F)cc2c1OCCN2Cc1cccnc1 | -26.5%[70.6 µM]
Cn1cnnc1CC1CCN(C(=O)c2cc(F)ccc2F)CC1 | 1.2%
O=C(NC1CCCc2c1[nH]c1ccc(F)cc21)c1cccs1 (stereo unspecified) | 2.7%
O=C1c2cnc(-c3ccccc3)nc2OCCN1c1cccc(C(F)(F)F)c1 | ?
Cc1cc(C(=O)N2C[C@@H](Oc3ccccc3)C[C@H]2C(=O)N2CCCC2)n(C)n1 | -1.8%
CNC(=O)[C@@H]1CN(S(=O)(=O)C(C)C)C[C@H]1COC | 4.1%
CCn1cc(S(=O)(=O)N2C[C@@H](C(N)=O)[C@H](c3nc(C)no3)C2)cn1 | -1.8%
COc1ccc(CN2CCNc3cc(Nc4ccccc4)ncc3C2)cc1O | -12.4%[70.6 µM]
CN(Cc1ccc(F)cc1)Cc1ccc(-c2ccccc2)cc1 | 0.0%[70.6 µM]
CCCC(=O)Nc1ccccc1-c1cccc(NC(C)=O)c1 | 4.8%
O=C(c1cc2ccccc2[nH]1)N1CCC2(C1)NC(=O)N(Cc1ccc(F)cc1)C2=O (stereo unspecified) | 22.4µM*
COC(=O)N1CCN(Cc2cc(=O)c3cc(F)ccc3[nH]2)CC1 | 0.3%
Cc1cccc(CNC(=O)Cn2c(C)ccc(NS(C)(=O)=O)c2=O)c1 | 4.4%
CCn1ccc(C(=O)N2CCN(c3cc(-c4ccc(Cl)cc4)[nH]n3)CC2)n1 | ?
COc1cccc(CN(C)C(=O)c2cn(Cc3ccc(Cl)cc3)nn2)c1 | -2.5%
CS(=O)(=O)N(C1CCOCC1)C1CN(C(=O)COc2ccccc2)C1 | -9.7%
CCOCCOC1CCN(C(=O)C2(S(=O)(=O)c3ccc(Cl)cc3)CC2)CC1 | -0.3%
Cc1cnc(CC2CCCN(S(C)(=O)=O)C2)n1C(C)C (stereo unspecified) | -14.1%
Cc1noc(-c2cn(C3CCCN(C(=O)c4ccc(F)cc4)C3)nn2)n1 (stereo unspecified) | -11.1%
Cc1cc(-c2cn(C)c(=O)n3cc(COc4ccccc4)nc23)ccn1 | 25.1µM*
Cc1cccc(-c2noc([C@@H]3Cc4nc[nH]c4CN3C(=O)COCC(=O)O)n2)c1 | -1.0%[70.6 µM]
O=C1NCCCCCN(C(=O)CCCc2ccccc2)[C@H]2CCCC[C@@H]12 | -8.4%
CC(C)(C)C(=O)Nc1cnc(-c2cccnc2)nc1 | -10.4%
CCCc1cc(CNC(=O)c2ccc(N3C[C@@H](C)O[C@@H](C)C3)nc2)on1 | 0.8%

# Pulled by compound from the list above:
Compound | hNpr1 antagonist
O=C(NC1CCCc2c1[nH]c1ccc(F)cc21)c1cccs1 (stereo unspecified) | 2.7%
CC(C)NC(=O)c1cc(-c2ccccc2F)cc2c1OCCN2Cc1cccnc1 | -26.5%[70.6 µM]
Cc1cccc(-c2noc([C@@H]3Cc4nc[nH]c4CN3C(=O)COCC(=O)O)n2)c1 | -1.0%[70.6 µM]
O=C1NCCCCCN(C(=O)CCCc2ccccc2)[C@H]2CCCC[C@@H]12 | -8.4%

# Continuation:
Compound | hNpr1 antagonist
CCNc1ncc(CN2CCN(c3ccncc3)CC2)cn1 | 6.6%
O=C(NC1CCCCC1)C1CN(S(=O)(=O)c2ccccc2Cl)CC12CCOCC2 (stereo unspecified) | -0.5%
COc1ccccc1NC(=O)c1cc2c(N3CCSCC3)nc(C)cn2n1 | 1.8%
Cc1ccc(-c2nnc(C3CN(C(=O)C(C)C)CC34CCOCC4)o2)cc1 (stereo unspecified) | 12.1%
Cc1cc(C(=O)N2CCC3(CCCN(C4CCOCC4)C3=O)C2)no1 (stereo unspecified) | 0.0%
O=C1[C@H]2CN(Cc3cccc(Br)c3)C[C@H]2C(=O)N1Cc1ccc2c(c1)OCO2 | -27.9%
Cc1ccc2c(CC(=O)N3CCOc4ccc(CN5CCOCC5)cc4C3)cc(=O)oc2c1 | 1.1%
COc1ccc(-c2nc(C3CC(=O)N(c4ccc(F)cc4)C3)no2)c(OC)c1 (stereo unspecified) | -5.8%
Cc1ccc(NC(=O)Cn2c(N3CCc4ccccc4C3)nc(C)cc2=O)c(C)c1 | 2.6%
O=C(NC[C@H]1O[C@H](Cc2cc(-c3ccccc3)on2)CC[C@@H]1O)C1CCC1 | 3.2%[70.6 µM]
COc1ccc(C(=O)NC[C@H]2O[C@@H](CO)[C@@H](O)[C@H]2N2CCc3ccccc3C2)cc1 | 5.9%
Cn1c(CO)nnc1C1CCN(c2ncncc2C(=O)O)CC1 | -3.0%
O=C1[C@@H]2C[C@@H](CN2C(=O)c2cccnc2)Oc2ccccc2N1Cc1ccc(OC(F)(F)F)cc1 | 3.3%
COCCNc1nc2cc(-c3nc(-c4cccnn4)no3)ccc2n1C | ?
Cc1noc(-c2cn(C3CCN(C(=O)c4cccc(C(F)(F)F)c4)C3)nn2)n1 (stereo unspecified) | -12.4%
c1cc(-c2cc3c(ccn3Cc3ccncc3)c(N3CCOCC3)n2)c2cn[nH]c2c1 | -17.7%[70.6 µM]
Cc1ccc(S(=O)(=O)NC[C@H]2O[C@@H](CO)[C@@H](O)[C@H]2N2CCN(c3ccc(F)cc3)CC2)cc1 | -2.0%
O=c1[nH]c(C2CCCN(Cc3cccc(Cl)c3)C2)nc2ccc(F)cc12 (stereo unspecified) | -19.7%
NC(=O)c1ccc(CC2CCN(C(=O)C3CC3)CC2)cc1 | -1.3%
CN(C)c1cccc(-c2nc(C3CC(=O)N(c4ccc(F)cc4)C3)no2)c1 (stereo unspecified) | -2.7%
COc1ccccc1CN1C(=O)COC[C@@H]1[C@H](O)c1ccc(NC(=O)c2ccc(C#N)cc2)cc1 | 0.1%
O=C1CO[C@H]2CCN(Cc3ccccc3O)CC[C@@H]2N1Cc1ccccc1 | -4.1%[70.6 µM]
O=C1NC(C(=O)NCCN2CCCCC2)Cn2cccc21 (stereo unspecified) | -0.5%
COCc1cc(CC2(NCc3ccc(C(F)(F)F)cc3)COC2)no1 | -2.1%[70.6 µM]
COc1ccc2nc3n(c2c1)[C@@H](CNS(=O)(=O)c1ccc(F)cc1)COC3 | 0.1%[70.6 µM]
Cc1c(F)cccc1NC(=O)Nc1cccc(-c2nnc3n2CCCC3)c1 | 3.4%
COCCNC(=O)[C@@H]1CCC[C@@H](NC(C)=O)CN(C)C(=O)C1 | 4.3%[70.6 µM]
COc1ccc(-n2nc(C)c([C@@H]3C=C[C@@H](NCc4cccc(Cl)c4)C3)c2C)cc1 | ?
O=C(C[C@@H]1O[C@H](CNCc2ccc(F)cc2)[C@@H](O)[C@H]1O)NCc1cccnc1 | 1.7%[70.6 µM]
O=S(=O)(c1ccccc1F)N1CC(c2nc(Cc3ccccc3)no2)C1 | 2.5%
NC(=O)[C@@H]1C[C@H](Oc2cccnc2)CN1C(=O)C1CCCCC1 | 0.0%
COc1cccc(CNC(=O)[C@@]23CCCC[C@H]2N(C)C(=O)CC3)c1OC | 1.1%
CCCN1CCC2(CCN(C(=O)c3cccc(Cl)c3)CC2)Oc2ccccc21 | 11.2%
CCCCOC(=O)c1ccc(NC(=O)c2c(OC)cc(=O)n3c2CCCC3)cc1 | -20.9%
O=C1COCC2(CN(CCCc3ccccc3)C2)CN1Cc1ccccc1 | -2.7%[70.6 µM]
O=C(c1cccnn1)N1CCC2(CC1)CC(c1ccccc1)CN(C1CC1)C2 (stereo unspecified) | 3.5%
O=C(Cc1ccccc1F)N1C[C@@H](CO)[C@H](c2nc(C3CC3)no2)C1 | 3.8%
Cc1cc(C(=O)N2CC[C@H](NS(=O)(=O)c3cccs3)C[C@H]2C(=O)N[C@H](Cc2ccccc2)C(N)=O)n(C)n1 | -2.0%
CC(C)c1noc(-c2cn(C3CCN(C(=O)c4ccc(C#N)cc4)CC3)nn2)n1 | 0.0%
Cc1ccsc1C(=O)N1CCC(N2C[C@H](O)C[C@H]2C(=O)NC2CCCCC2)CC1 | -10.6%
Cc1c(Cl)cccc1NC(=O)Cn1ccn2nc(-c3ccc(F)cc3)c(CO)c2c1=O | 0.1%
COc1ccc(CCNC(=O)Cn2nc3n(c2=O)CCCC3)cc1OC | -10.8%
O=C(CN1C(=O)CNC1=O)N1C[C@H](CO)C[C@H](CN2CCOCC2)C1 | 0.0%
CCC1(C(=O)Nc2ccc(C)cc2)CCCCC(=O)N1 (stereo unspecified) | -5.3%
CCOC(=O)C1(Cc2ccccc2F)CCCN(C(=O)c2ccc(OC)nc2OC)C1 (stereo unspecified) | -0.7%
OCc1ccc(CN2C[C@H](O)C[C@H]2c2nc(-c3ccc(OC(F)(F)F)cc3)no2)o1 | -11.7%[70.6 µM]
Cc1ccc(C(=O)N2CCc3nc(-c4ccc(Cl)cc4)nc(-c4ccccc4)c3C2)cc1 | 0.5%&8.6%
COc1ccc2cc(C3CN(C(=O)c4ccc(C)cc4OC)CCO3)ccc2c1 (stereo unspecified) | ?
C[C@@H]1CN(c2ccc(C(=O)N3CCC(N4CCOCC4)CC3)cn2)C[C@H](C)O1 | 3.7%
CCC1Oc2ccc(NC(=O)COc3ccccc3)cc2CN(Cc2ccc(OC)cc2)C1=O (stereo unspecified) | -7.3%
CN(C(=O)NC1CCCC1)C1CCc2ccccc2C1 (stereo unspecified) | 5.0%[70.6 µM]

# Only part of the results is shown; rates above refer to the full screens.
